Assay outcomes from PubChem BioAssay.
Beta2AR agonist: human beta-2 adrenergic receptor agonism by FAP; P07550; 340,000 compounds, 0.43% hits; response, % (test concentration not listed); Am2.2-beta2AR cells, FAP receptor internalization, flow cytometry; reference of the scale not given here;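 active = response above a set limit, near 3 SD of response in nonfluorescent compounds, cut at about 42% in these data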;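 note: stock transfer was 100 nL into about 11 µL; a reference agonist was the positive control; negative values mostly stem from fluorescent compounds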
Target sequence (P07550 whole entry, looked up): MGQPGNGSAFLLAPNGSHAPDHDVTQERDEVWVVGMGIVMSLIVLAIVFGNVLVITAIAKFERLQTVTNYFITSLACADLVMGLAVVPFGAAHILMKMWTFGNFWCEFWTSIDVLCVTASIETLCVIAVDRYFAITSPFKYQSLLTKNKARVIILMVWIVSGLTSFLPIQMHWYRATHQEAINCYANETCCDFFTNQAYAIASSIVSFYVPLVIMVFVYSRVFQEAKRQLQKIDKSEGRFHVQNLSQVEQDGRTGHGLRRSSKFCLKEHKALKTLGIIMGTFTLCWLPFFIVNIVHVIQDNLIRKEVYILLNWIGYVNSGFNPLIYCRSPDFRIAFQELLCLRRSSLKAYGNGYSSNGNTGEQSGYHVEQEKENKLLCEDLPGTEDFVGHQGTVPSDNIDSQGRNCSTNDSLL
UCH37 inh: human UCH37 deubiquitinating enzyme inhibition; Q9Y5K5; purified proteasome/UCH37, Ub-AMC cleavage fluorescence; inhibition, % (concentration not given with the values); 330,000 compounds, 0.33% hits; AID 588478;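 active = mean of two replicates above 20%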;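 note: 0% = compound-free wells with enzyme and 100% = wells lacking proteasome; stock transfer was 100 nL into about 20 µL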
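Material: human UCH37 enzyme supplied as purified proteasome complex. Measure: % inhibition of Ub-AMC cleavage fluorescence. Medium: pH 7.4 Tris-HCl (50 mM) with ovalbumin, ATP-MgCl2, DTT. Times: 30 min preincubation with enzyme, 25 min cleavage at room temperature. Detection: AMC fluorescence intensity at 355/460 nm.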
Ecoli growth: E. coli growth inhibition; OD600 absorbance (no concentration beside the values); 330,000 compounds, 0.21% hits; Escherichia coli growth, OD600, 23 h; active compounds read low;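 active = OD600 absorbance below the run mean of sample wells minus 3.6 SD, in any replicate, cut at about 0.56 in these data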;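 note: stock transfer was 300 nL into about 60 µL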
HNF4A DNA FP: change in binding of human HNF4 alpha to DNA; P41235; HNF4a-FITC DNA binding, fluorescence polarization, 1 h; activity change, % at 10 µM; 360,000 compounds, 0.3% hits; AID 1224865; in the data active = activity change above about 30%, passing the limit was not always enough;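 note: controls were the assay level and a saturating level of protein; the project sought stronger binding though the title names inhibitors; some compounds called inactive have numbers as strong as hits; positive values seem to mean higher polarization but the record does not say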
Target sequence (P41235 whole entry, looked up): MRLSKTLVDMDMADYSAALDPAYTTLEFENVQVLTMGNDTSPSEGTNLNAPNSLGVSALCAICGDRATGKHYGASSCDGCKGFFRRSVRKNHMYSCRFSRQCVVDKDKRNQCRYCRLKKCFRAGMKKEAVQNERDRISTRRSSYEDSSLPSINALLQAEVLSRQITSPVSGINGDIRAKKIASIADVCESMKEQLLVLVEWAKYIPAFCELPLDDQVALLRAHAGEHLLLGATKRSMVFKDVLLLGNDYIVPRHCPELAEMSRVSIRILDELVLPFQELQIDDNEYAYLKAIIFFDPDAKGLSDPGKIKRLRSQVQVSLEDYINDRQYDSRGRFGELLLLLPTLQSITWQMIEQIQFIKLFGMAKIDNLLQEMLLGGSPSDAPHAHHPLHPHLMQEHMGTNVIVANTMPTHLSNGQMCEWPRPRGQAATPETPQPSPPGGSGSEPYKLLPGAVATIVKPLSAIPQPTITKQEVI
ALR H2O2 inh: blocks human ALR sulfhydryl oxidase activity; P55789; purified ALR, DTT oxidation, H2O2 HRP-luminol luminescence; inhibition, % (test concentration not listed); 290,000 compounds, 3.8% hits;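 active = mean and each replicate at 75% or more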;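 note: stock transfer was 7.5 nL into about 7.5 µL; 0% = neutral wells and 100% = wells with inactivated enzyme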
FGF22 binding: shifts melting point of recombinant human FGF22; Q9HCT0; calls only at 9.99 µM; 340,000 compounds, 1.5% hits; recombinant FGF22 thermal shift, SYPRO orange fluorescence; percent of sucrose octasulfate shift, DMSO zero; AID 651658;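 active = melting point raised past a set limit in the mean and every replicate; three in four hits are not shown here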
Target sequence (Q9HCT0 whole entry, looked up): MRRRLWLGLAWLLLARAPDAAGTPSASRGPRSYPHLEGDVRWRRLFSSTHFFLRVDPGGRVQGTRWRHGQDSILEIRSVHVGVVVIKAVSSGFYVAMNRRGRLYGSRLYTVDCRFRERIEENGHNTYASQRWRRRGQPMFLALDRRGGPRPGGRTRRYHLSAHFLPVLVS
rRNA inh HTS: inhibitors of bacterial rRNA selective over humanized ribosomes | E. coli WT GFP vs humanized-ribosome RFP mutants, fluorescence, 24 h; active compounds read low; DMSO median 0, no signal -100 | GFP signal change (wild-type ribosome), % (concentration not given with the values) | 350,000 compounds, 1.6% hits | AID 720706;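 active = significant combined selectivity score with lowered wild-type GFP, culture density cut under 30%, mutant RFP and density less affected; inactive = any of these conditions unmet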; note: one replicate is shown; some compounds called inactive have numbers as strong as hits
rRNA inh HTS OD600: recorded beside rRNA inh HTS, whose call it bears; OD600 change, %; measured here: OD600 growth;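 optical density of the mix in the first replicate; 0 = DMSO median and -100 = no signal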
rRNA inh HTS RFP: also measured in rRNA inh HTS; calls as there; RFP signal change, %; measured here: RFP humanized mutant strains;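 first replicate; 0 = DMSO median and -100 = no signal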
The depositor's hits bear a star; i = inactive; / = not tested or not shown. An excerpt (hit frequency here may not be typical).

Sample of the layout:
no. | Compound | Beta2AR agonist | UCH37 inh | Ecoli growth | HNF4A DNA FP | ALR H2O2 inh | FGF22 binding | rRNA inh HTS | rRNA inh HTS OD600 | rRNA inh HTS RFP
1 | COc1ccccc1N(CC(O)Cn1ccnc1C)S(=O)(=O)c1ccccc1 (stereo not drawn) | 2 | 1.1 | 0.69 | -1.4 | -4 | i | 11 | 5 | 0.6
2 | FC(F)(F)c1nc2ccccc2n2c(-c3c(Cl)cccc3Cl)nnc12 | -5 | -3.7 | 0.73 | 1.4 | -3 | / | / | / | /

All compounds of this part, repeating the preview:
no. | Compound | Beta2AR agonist | UCH37 inh | Ecoli growth | HNF4A DNA FP | ALR H2O2 inh | FGF22 binding | rRNA inh HTS | rRNA inh HTS OD600 | rRNA inh HTS RFP
1 | COc1ccccc1N(CC(O)Cn1ccnc1C)S(=O)(=O)c1ccccc1 (stereo not drawn) | 2 | 1.1 | 0.69 | -1.4 | -4 | i | 11 | 5 | 0.6
2 | FC(F)(F)c1nc2ccccc2n2c(-c3c(Cl)cccc3Cl)nnc12 | -5 | -3.7 | 0.73 | 1.4 | -3 | / | / | / | /
3 | CC(C)(c1ccccc1)c1ccc(OCC(O)CNC2CCN(Cc3ccccc3)CC2)cc1 (stereo not drawn) | 23 | / | / | -0.8 | -9 | i | -56 | -83 | -28
4 | O=C(COc1ccccc1)N=C1SC2CS(=O)(=O)CC2N1c1ccc(F)cc1F (stereo not drawn) | -6 | 2.8 | 0.69 | 4.0 | -1 | i | 7 | 9 | -0.2
5 | O=C(OCC(=O)N1N=C(c2ccc(Cl)cc2)CC1c1ccco1)c1cccnc1 (stereo not drawn) | 23 | 0.7 | 0.63 | -4.0 | 11 | i | 6 | 2 | 5.1
6 | COc1ccccc1C(=O)NNC(=O)c1csc(N2CCOCC2)n1 | -7 | -4.2 | 0.64 | -1.1 | 20 | i | 10 | 5 | 2.2
7 | COc1ccc(C2C=C(c3ccccc3)Nc3nnnn32)cc1 (stereo not drawn) | -16 | -1.1 | 0.7 | -7.7 | 6 | i | -4 | 0 | 3.9
8 | N#CCc1c(C#N)c(N)nc(N2CCCC(CO)C2)c1C#N (stereo not drawn) | -2 | 1.5 | 0.71 | 3.9 | 19 | i | 0 | -5 | 0.1
9 | COCCn1c(SCC(=O)NNC(=O)c2ccc(OC)c(OC)c2)nc2ccccc2c1=O | 3 | 3.6 | 0.66 | -0.2 | 3 | / | 0 | 2 | -2.7
10 | COc1ccccc1C1SCCN1S(=O)(=O)c1ccccc1 (stereo not drawn) | / | / | / | 2.7 | / | i | -6 | -19 | -2.0
11 | Cc1ccccc1C(=O)NNC(=O)C1CC(=O)N(Cc2ccccc2)C1 (stereo not drawn) | 2 | 0.2 | 0.69 | -4.2 | / | i | 10 | 5 | -0.8
12 | C=CCC[C@@H](Cc1ccc(F)cc1)C(=O)OC[C@@H](NC(=O)[C@H](CC=C)CC(=O)NCCO)C(C)(C)C | -11 | 2.1 | / | -1.8 | -5 | i | -3 | 7 | -1.0
13 | COc1ccc(N(CC(=O)NCc2ccccc2OC)S(=O)(=O)c2ccccc2[N+](=O)[O-])c(OC)c1 | 3 | 2.3 | 0.68 | -0.8 | -4 | i | -20 | -14 | -4.8
14 | Cc1cc(=O)oc(C)c1C(=O)OCC(=O)c1ccc(Cl)cc1 | -1 | 1.3 | 0.8 | 0.7 | 2 | / | / | / | /
15 | Cc1nc(Cc2nnc(SCC(=O)N3CC(=O)Nc4ccccc43)o2)cs1 | 4 | 2.2 | 0.66 | -4.1 | -5 | i | 3 | 8 | 5.7
16 | O=C(CN(Cc1ccc(F)cc1)C(=O)CCC(=O)Nc1ccccn1)NCCc1ccccc1 | -5 | 3.3 | 0.7 | 1.6 | -4 | i | 3 | 14 | -2.2
17 | O=C1CCCC(=O)C1CS(=O)(=O)c1ccccc1 | 0 | -0.1 | 0.69 | 1.8 | 12 | i | 9 | 15 | -3.7
18 | Cc1cc(=O)oc(C)c1C(=O)Nc1ccc(Cl)cn1 | 1 | -1.0 | 0.72 | 2.1 | 2 | / | / | / | /
19 | O=C(c1cccc([N+](=O)[O-])c1)N1CCCC(C(=O)N2CCCCCC2)C1 (stereo not drawn) | 5 | 1.5 | 0.66 | 2.6 | / | i | 5 | 5 | -3.1
20 | CC(N)=Nc1ccc([N+](=O)[O-])cc1 | -8 | 5.5 | 0.67 | 0.5 | -7 | / | / | / | /
21 | CON(C)S(=O)(=O)c1cccc(C(=O)N(CC(=O)Nc2ccccc2C(F)(F)F)Cc2ccco2)c1 | 3 | 5.0 | 0.72 | 3.8 | -22 | i | -4 | 12 | -1.4
22 | Cc1ccc(-c2noc(CCC(=O)Nc3ccc4c(c3)OCO4)n2)cc1 | -5 | 0.4 | 0.71 | 1.4 | -10 | / | / | / | /
23 | CCOC(=O)C1=C(N)Oc2cc(O)ccc2C1c1cccnc1 (stereo not drawn) | 8 | 3.6 | 0.68 | 2.9 | 62 | / | / | / | /
24 | CC(NC(=O)c1ccccc1C(=O)O)c1ccc(-n2ccnc2)cc1 (stereo not drawn) | -8 | 2.1 | 0.67 | -0.4 | -3 | i | 6 | 5 | -3.2
25 | Cc1ccc(S(=O)(=O)N(Cc2n[nH]c(=S)n2-c2ccccc2)c2ccccc2)cc1 | 0 | 5.5 | 0.69 | -1.3 | 54 | i | -11 | -9 | 9.7
26 | CCOC(=O)C(=O)Nc1ccccc1C#N | 8 | 4.9 | 0.67 | 1.9 | -4 | i | 13 | 4 | -0.2
27 | Nc1nnc(CC(=O)N/N=C/c2ccccc2OCc2ccccc2F)s1 | 9 | / | / | 2.2 | / | / | -6 | -4 | 1.5
28 | N#CCSc1nc2ccc(N3CCCCC3)cc2c(=O)n1Cc1ccccc1 | 1 | -49 | 0.73 | 5.9 | -6 | / | / | / | /
29 | COc1ccccc1/C=C/C(=O)NC(=S)NC(C)C | 0 | -9.1 | 0.72 | -1.6 | -7 | i | -3 | -1 | -2.7
30 | Cn1c(Cn2c(=O)sc3ccccc32)nnc1SCC(=O)Nc1cccc(F)c1 | -16 | 2.6 | 0.7 | -2.1 | -5 | i | 6 | 12 | 1.1
31 | CN1CCCC(OC(=O)c2ccc(Cl)cc2)C1 (stereo not drawn) | 18 | 1.1 | 0.67 | 3.0 | 1 | i | 16 | 4 | 2.4
32 | S=C(Nc1ccccc1Cl)N(Cc1cccnc1)Cc1ccco1 | -23 | 2.6 | 0.7 | -1.2 | -1 | i | -19 | -12 | 10
33 | COc1cccc(CNCCSc2nnnn2C)c1 | -8 | 4.3 | 0.68 | -2.7 | 0 | / | / | / | /
34 | Cc1ccc(F)cc1NC(=O)C1CCN(c2cnccn2)CC1 | 3 | -21 | 0.68 | 4.2 | -13 | / | / | / | /
35 | COc1ccc(NC(=O)c2csc(C)c2)cc1OC | -2 | 2.7 | 0.69 | 0.1 | -3 | i | 9 | 5 | 0.6
36 | Cc1ccc(Cl)cc1N(CC(=O)NC1CCCC1)C(=O)c1csnn1 | -9 | 4.0 | 0.66 | 3.1 | 1 | i | 4 | 2 | -0.4
37 | Nc1ccc(NC(=O)Nc2ccc(N)cc2)cc1 | -1 | 0.7 | 0.69 | 0.8 | 99* | i | 6 | 16 | -5.6
38 | COc1ccc(Cl)cc1-c1nc(-c2ccc(NC(=O)c3cccs3)cc2)no1 | -4 | / | / | 1.0 | 1 | / | / | / | /
39 | CC(C)(C)[C@@H]1C=C(C(=O)N2CCN(Cc3ccccc3)CC2)O[C@H](OCc2ccc(CO)cc2)C1 | -3 | 4.7 | / | -0.9 | / | i | -30 | -66 | -5.8
40 | O=S(=O)(NCc1ccccn1)c1ccc2c(c1)OCCO2 | -6 | -0.2 | 0.66 | 0.9 | -1 | / | / | / | /
41 | O=c1[nH]c(/C=C/c2ccc3c(c2)OCO3)c([N+](=O)[O-])c(=O)[nH]1 | / | 13 | 0.65 | / | 8 | / | / | / | /
42 | CCC(C)(C)n1nnnc1C(c1cccnc1)N1CCN(c2cccc(C(F)(F)F)c2)CC1 (stereo not drawn) | -3 | 1.6 | 0.67 | -3.3 | -20 | / | / | / | /
43 | CC1CC(C)CN(C(=O)CN(C)S(=O)(=O)c2ccc3c(c2)c(=O)n(C)c(=O)n3C)C1 (stereo not drawn) | -8 | -1.8 | 0.64 | 0.0 | 0 | i | 4 | 4 | 1.4
44 | COc1ccc2ccccc2c1/C=N/O | 0 | / | / | 0.9 | -36 | / | / | / | /
45 | Cc1ccc(C(C)(C)C)cc1S(=O)(=O)Nc1nc2ccccc2nc1Cl | 15 | -6.3 | 0.64 | -0.3 | / | / | -11 | -17 | -11

Ordered by length of the SMILES (falling): 4 of the compounds above.
no. | Compound | Beta2AR agonist | UCH37 inh | Ecoli growth | HNF4A DNA FP | ALR H2O2 inh | FGF22 binding | rRNA inh HTS | rRNA inh HTS OD600 | rRNA inh HTS RFP
42 | CCC(C)(C)n1nnnc1C(c1cccnc1)N1CCN(c2cccc(C(F)(F)F)c2)CC1 (stereo not drawn) | -3 | 1.6 | 0.67 | -3.3 | -20 | / | / | / | /
38 | COc1ccc(Cl)cc1-c1nc(-c2ccc(NC(=O)c3cccs3)cc2)no1 | -4 | / | / | 1.0 | 1 | / | / | / | /
34 | Cc1ccc(F)cc1NC(=O)C1CCN(c2cnccn2)CC1 | 3 | -21 | 0.68 | 4.2 | -13 | / | / | / | /
37 | Nc1ccc(NC(=O)Nc2ccc(N)cc2)cc1 | -1 | 0.7 | 0.69 | 0.8 | 99* | i | 6 | 16 | -5.6

Next results follow:
no. | Compound | Beta2AR agonist | UCH37 inh | Ecoli growth | HNF4A DNA FP | ALR H2O2 inh | FGF22 binding | rRNA inh HTS | rRNA inh HTS OD600 | rRNA inh HTS RFP
46 | Cc1cccc[n+]1CC(=O)c1ccc(Cl)cc1 | -1 | 0.5 | 0.7 | 2.0 | 18 | i | 26 | 16 | 4.4
47 | Clc1ccc(Nc2nc(-c3cccnc3)cs2)cc1 | -4 | 1.4 | 0.67 | 0.8 | 4 | / | -4 | 1 | -0.8
48 | Cc1cccc(C)c1NC(=O)CN1CCNCC1 | 1 | 3.4 | 0.77 | -0.1 | -9 | / | / | / | /
49 | Cc1cc(N2CCN(c3ccc(F)cc3)CC2)nc2cc(O)ccc12 | 1 | -34 | 0.68 | -1.1 | 51 | i | -53 | -74 | -9.6
50 | Cc1ccccc1NC(=O)CN1C(=O)C2C3CC(C(Br)C3Br)C2C1=O (stereo not drawn) | 7 | 0.0 | 0.67 | -1.2 | -3 | i | -4 | -8 | -0.2
51 | CCOC(=O)Nc1ccc([N+](=O)[O-])cc1C | 3 | 8.5 | 0.69 | -1.1 | -8 | i | 10 | 11 | -1.1
52 | O=C(COc1ccccc1Cl)Nc1ccc2oc(=O)ccc2c1 | -5 | -8.9 | 0.65 | 1.9 | / | i | 6 | 4 | 2.7
53 | N#Cc1c(N)n(-c2ccccc2)c(=O)c2cc([N+](=O)[O-])ccc12 | -5 | 1.8 | 0.67 | -0.4 | 17 | i | 14 | 20 | -1.4
54 | CC(C)Sc1nc2ccccc2n2cnnc12 | -11 | -1.2 | 0.7 | 6.8 | 99* | i | 6 | 7 | -0.3
55 | CCOC(=O)C1=CCN(S(=O)(=O)c2ccc(F)cc2)C1c1ccc(Cl)c(Cl)c1 (stereo not drawn) | / | / | / | -2.0 | / | i | -4 | -6 | 2.2
56 | CC1CN(C(=S)Nc2ccccc2C(F)(F)F)CC(C)O1 (stereo not drawn) | -4 | -0.4 | 0.69 | -3.5 | -5 | i | 1 | 7 | -0.3
